# GIV Gai3 FP: inhibitors of GIV GBA-motif binding to rat Galpha-i3 | Galpha-i3/FITC-GIV peptide fluorescence polarization, 90 min; hits give low values; scaled: aluminum fluoride 0%, vehicle 100% | percent of control (FP), % (no concentration beside the values) | hit rate 0.42% among 210,000 | AID 1224905;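 active = replicate mean at 85% of control or lower, very high polarization wells dropped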;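 also: wells of about 15 µL received 100 nL stock; the first replicate is given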
# Target sequence (P08753 whole entry, looked up): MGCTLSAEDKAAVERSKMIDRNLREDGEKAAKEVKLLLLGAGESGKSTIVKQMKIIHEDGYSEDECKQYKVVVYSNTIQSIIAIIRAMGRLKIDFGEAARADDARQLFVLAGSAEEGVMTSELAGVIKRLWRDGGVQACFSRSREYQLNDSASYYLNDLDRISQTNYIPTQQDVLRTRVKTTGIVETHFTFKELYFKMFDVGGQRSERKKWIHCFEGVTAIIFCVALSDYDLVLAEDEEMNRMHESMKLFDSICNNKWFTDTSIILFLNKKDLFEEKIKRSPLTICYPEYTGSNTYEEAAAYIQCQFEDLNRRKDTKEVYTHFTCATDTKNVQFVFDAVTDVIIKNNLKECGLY
# HCMV NEC inh: cytomegalovirus nuclear egress complex inhibition. inhibition, % (test concentration not listed). HTRF UL50-UL53 interaction, normalized percent inhibition. AID 1918969. hit rate 0.15% among 190,000;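 active = both replicates at 50% or more, plus weaker picks with an unusually low signal ratio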;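 also: stock transfer was 100 nL into about 20 µL; 0% = negative control wells and 100% = wells with untagged competitor protein; inactives centre near -12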
# Sa growth inh: blocks Staphylococcus aureus growth | S. aureus RN4220 growth, OD600, 20 h, 42 °C; hits give low values | relative growth, % (test concentration not listed) | hit rate 0.53% among 170,000 | AID 720641;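 active = growth at 42 °C up to 50% and 20 or more points under that at 30 °C, or under 10% at both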;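 also: 300 nL library stock went into each well; scaled to the means of positive and negative controls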
# Sa growth inh second temp: second read-out of Sa growth inh, no call of its own (marks repeat the call); relative growth, %; measured here: growth at 30 °C;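 optical density after 20 h as mean of two plates; 100% = untreated growth and lower means inhibition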
# An asterisk follows results filed as active; x = no result given; & = joins results of further samples.
SMILES,GIV Gai3 FP,HCMV NEC inh,Sa growth inh,Sa growth inh second temp
O=C(/C=C/c1c(Cl)nc2sccn12)OCc1ccco1,x,-87,87,79
CCC1CCCCN1C(=O)c1cc(-c2cccs2)on1 (stereo not given),100,-19,78,69
O=C(CSc1n[nH]c(-c2cccs2)n1)c1ccc(Cl)cc1,100,5,103,86
CN1CCC(NCCc2ccccc2)CC1,105,-20,111,97
Cc1ccc(NC(=O)Cn2c(=O)oc3cc(S(=O)(=O)N4CCCC4)ccc32)cc1F,103,7,103,81
O=C1NC(=S)N/C1=C\c1cc(Br)ccc1OCc1ccc([N+](=O)[O-])cc1,102,-20,x,x
Cc1ccc(-n2c(SCC(=O)NCc3ccccc3)nc3n[nH]c(C)c3c2=N)cc1Cl,102,x,126,89
CCCCN(CC)C(=O)c1cc2c(=O)n3ccccc3nc2n1C,102&102&109,-50&-105&-42,119&101,87&80
Nc1nnc(-c2cn(-c3ccccc3)nc2-c2ccc(Cl)cc2)o1,97,2,96,78
COc1ccc(C(=O)CSc2nn3c(SCC(=O)c4ccc(OC)cc4)nnc3s2)cc1,x,-22,68,66
CCN(C(=O)CCc1nc(-c2ccc(C)cc2)no1)c1cccc(C(F)(F)F)c1,104,-3,112,105
COC(OC)c1ccc(C#N)c(SCC(=O)c2ccc(Cl)cc2)n1,106,-81,95,88
O=C(Nc1ccc(Cl)cc1)c1cc2ccccn2n1,109,-27,x,x
O=C(Nc1cc(Cl)ccc1Cl)c1cc(S(=O)(=O)N2CCCc3ccccc32)ccc1F,106,x,123,101
O=C(NC(=S)NCc1ccccc1)C1CCCC1,109,5,113,68
O=S(=O)(NCc1cccn1Cc1ccccc1)c1cccc(Cl)c1,110,-26,x,x
CN1C/C(=C/c2ccc(O)cc2)C(=O)/C(=C/c2ccc(O)cc2)C1,x,-10,94,97
Cc1cc(C)cc(N2C(=O)c3ccccc3NC2c2ccc(Cl)cc2)c1 (stereo not given),x,-11,106,93
O=C(O)Cc1ccc2sc(-c3ccccc3)nc2c1,x,-35,127,87
CC(C)Cn1c(=O)c2ccccc2n2c(=O)n(CC(=O)N3CCN(c4ccc(F)cc4)CC3)nc12,98,7,x,x
CN(Cc1ccccc1)c1nc(-c2ccccc2)cc(C(F)(F)F)n1,98,x,110,95
Cc1ccc(C(C)(C)CC(=O)O)cc1,x,7,90,98
CC(=O)N1CCCc2cc(S(=O)(=O)N(C)CC(=O)Nc3ccc(C)cc3C)ccc21,109,x,96,87
CCn1c(=O)n(CC)c2cc(NC=O)c(Br)cc21,102,-14,107,96
CCOC(=O)N1CCc2c(sc3c2c(=O)n(Cc2ccccc2)c(=O)n3CC(=O)Nc2cccc(CC)c2)C1,104,-41,106,87

# Another view of part of the listing above.
mol | GIV Gai3 FP | HCMV NEC inh | Sa growth inh | Sa growth inh second temp
CCN(C(=O)CCc1nc(-c2ccc(C)cc2)no1)c1cccc(C(F)(F)F)c1 | 104 | -3 | 112 | 105
COC(OC)c1ccc(C#N)c(SCC(=O)c2ccc(Cl)cc2)n1 | 106 | -81 | 95 | 88
O=C(Nc1ccc(Cl)cc1)c1cc2ccccn2n1 | 109 | -27 | x | x
O=C(Nc1cc(Cl)ccc1Cl)c1cc(S(=O)(=O)N2CCCc3ccccc32)ccc1F | 106 | x | 123 | 101

# Going on with the list:
SMILES,GIV Gai3 FP,HCMV NEC inh,Sa growth inh,Sa growth inh second temp
COc1ccc(N/C(N)=N/c2nc(CSc3nc4ccccc4s3)cc(=O)[nH]2)cc1,98,x,95,82
CC(CNC(=O)c1cc2oc3ccccc3c2n1C)c1ccccc1 (stereo not given),101,x,119,88
O=C(NCCOC12CC3CC(CC(C3)C1)C2)c1nc(-c2cccnc2)no1,101,x,104,81
CCN(CC)C(=O)C1CCCN(c2ncnc3c2nc2n3CCCCC2)C1 (stereo not given),105,x,124,84
Cc1nc2sc(C)c(C)c2c(=O)o1,108,-16,x,x
Cc1nc2c(C(=O)NCCc3ccc(Cl)cc3)cnn2c(C)c1Cc1ccc(F)cc1,96,x,117,84
CCN(CC)S(=O)(=O)c1ccc2c(c1)N(CC(=O)NC(C)C)C(=O)CCS2,101,-6,x,x
Cc1ccc(Cl)cc1NC(=O)CCCn1c(=O)c2cccn2c2cccnc21,106,x,112,87
Cn1c(=NC(=O)CSCC(=O)N2CCCC2)sc2ccccc21,101,-6,92,86
O=C1Nc2ccccc2C12Nc1ccccc1CO2 (stereo not given),105,-15,97,66
c1ccc(-c2cnc(CSc3ncn[nH]3)o2)cc1,x,-24,99,76
O=C(C1CC1)N1CCC(C(O)(c2ccccc2)c2ccccc2)CC1,x,8,114,101
O=C(Nc1ccccc1)N(CCc1ccncc1)C1CCCCC1,103,-26,88,84
Cc1nn(-c2ccccc2)c2sc(C(=O)Nc3cccnc3)cc12,x,-26,83,48
O=C(CSc1nnc(Cc2ccccc2)n1Cc1ccco1)NC1CCCC1,97,-8,103,99
COC(=O)c1sccc1-c1ccc(/C=N/OC(=O)c2cccs2)o1,105,-34,99,83
COC(=O)c1sccc1NCc1ccccc1,106,-11,96,96
CCSc1nnc(CSc2nc(C)cc(C)n2)n1-c1ccccc1,96,-32,99,84
CCCCCNc1nc2ccccc2nc1NS(=O)(=O)c1cccs1,102,-29,113,58
Cc1cccc(OCc2nc(C)c(C(=O)Nc3nc4ccc(C)cc4s3)s2)c1,104,-16,x,x
CC1CCN(S(=O)(=O)c2ccc(C(=O)NCc3ccco3)cc2)CC1,x,-6,87,80
NC(=O)c1nc(-c2cccc(O)c2)nc2c1[nH]c(=O)n2CC1CCCO1 (stereo not given),98,-13,x,x
Cc1ccc(N(CC(=O)NCc2cccs2)S(=O)(=O)c2cccs2)cc1,104,x,100,84
COC(=O)c1cc(NC(=O)CCc2c(C)nc3c(c(C)nn3C(C)(C)C)c2C)cc(C(=O)OC)c1,104,-37,88,88
Cc1cc(NC(=O)Cc2noc3ccccc23)no1,108,5,x,x

# In the list so far, two contain a COOH group.
SMILES,GIV Gai3 FP,HCMV NEC inh,Sa growth inh,Sa growth inh second temp
O=C(O)Cc1ccc2sc(-c3ccccc3)nc2c1,x,-35,127,87
Cc1ccc(C(C)(C)CC(=O)O)cc1,x,7,90,98

# Reformatted with values under each structure: 5 of the compounds above
# Results follow in this order: GIV Gai3 FP, HCMV NEC inh, Sa growth inh, Sa growth inh second temp
COC(=O)c1sccc1-c1ccc(/C=N/OC(=O)c2cccs2)o1
  105, -34, 99, 83
COC(=O)c1sccc1NCc1ccccc1
  106, -11, 96, 96
CCSc1nnc(CSc2nc(C)cc(C)n2)n1-c1ccccc1
  96, -32, 99, 84
CCCCCNc1nc2ccccc2nc1NS(=O)(=O)c1cccs1
  102, -29, 113, 58
Cc1cccc(OCc2nc(C)c(C(=O)Nc3nc4ccc(C)cc4s3)s2)c1
  104, -16, x, x

# Next section:
SMILES,GIV Gai3 FP,HCMV NEC inh,Sa growth inh,Sa growth inh second temp
COc1ccc(N(CC(=O)N2CCN(c3ccc(Cl)cc3)CC2)S(=O)(=O)c2c(C)noc2C)cc1,103,-14,95,92
COc1cc(-c2nc3ccccc3c(=O)n2NC(=O)/C=C/c2cccc(Cl)c2)cc(OC)c1OC,100,-16,x,x
CC(C)N(Cc1ccccc1)C(=O)C1=CCN(S(=O)(=O)c2ccccc2)CC1,108,-1,104,90
O=C(OCc1ccc(Cl)c(Cl)c1)c1ccccn1,105,-10,113,102
O=C(Nc1ccccc1C(F)(F)F)c1cc2nc(-c3ccccc3)cc(-c3ccccc3)n2n1,107,-73,85,82
FC(F)(F)c1ccc(C2NCCc3sccc32)cc1 (stereo not given),100,-8,96,95
O=C(COc1ccc(S(=O)(=O)NC2CCCC2)cc1)N1CCCCC1,100,-28,110,99
CCN(Cc1ccccc1)C(=O)CCc1nc(CN2CCN(S(=O)(=O)c3ccc(F)c(C)c3)CC2)no1,104,5,x,x
O=C(Nc1ccc2c(c1)OCCO2)c1cccc(N2C(=O)CCS2(=O)=O)c1,107,-19,x,x
CCN(c1ccccc1)S(=O)(=O)c1cc(C(=O)Nc2ccc(Br)cc2)ccc1F,109,x,98,104
O=C(CN1C(=O)CCCc2ccccc21)N1CCN(c2ccccc2)CC1,107,-10,x,x
Cc1ccc(CN2CCN(C3CCNCC3)C(=O)C2=O)cc1,103,x,108,92
CC(C)Cn1c(SCC(=O)N2CCc3ccccc32)nc2ccccc2c1=O,x,-24,90,92
Cc1cc(Nc2ccc(N(C)C)cc2)ncn1,98,0,x,x
CCOC(=O)c1ccccc1NC(=O)CN(c1ccc(OC)c(OC)c1)S(=O)(=O)c1ccc(C)cc1,105,-8,x,x
CN1CCN(CCN2C(=O)c3ccccc3C2=O)CC1,99,-8,91,84
CC(C)CC(=O)Nc1ccccc1OCc1cc(=O)n2ccccc2n1,101,x,96,88
CCOC(=O)c1c(C)n(C)c2c1cc(OC(=O)c1ccc(Br)cc1)c1ccccc12,96,-22,x,x
CC(Oc1ccc(F)cc1)c1nnc(SCC(N)=O)n1C (stereo not given),101,1,98,102
CN(CC1CCCO1)C1CCN(S(=O)(=O)c2csc(C(N)=O)c2)CC1 (stereo not given),105,-17,x,x
Cc1oc(-c2cccc(Cl)c2)nc1CN1CCC(C(=O)NC(C)c2ccccc2)CC1 (stereo not given),107,-34,97,88
c1ccc2c(CSc3nc4ccccc4o3)cccc2c1,x,3,92,119
O=C(NC1CCCC1)c1ccc(CSc2nc3cccnc3n2Cc2cccc(F)c2)cc1,102,x,91,88
C=C1N(c2nc(C)cc(C)n2)C(=O)OC1(C)C,x,-8,86,88
COC(=O)c1cc2sc(C)cc2n1Cc1cccc(OC)c1,101,-31,110,92

# Full records, looked up by structure. Order of values: GIV Gai3 FP	HCMV NEC inh	Sa growth inh	Sa growth inh second temp
# O=C(Nc1ccccc1C(F)(F)F)c1cc2nc(-c3ccccc3)cc(-c3ccccc3)n2n1 in the list: 107	-73	85	82
# CCN(Cc1ccccc1)C(=O)CCc1nc(CN2CCN(S(=O)(=O)c3ccc(F)c(C)c3)CC2)no1 in the list: 104	5	x	x
# FC(F)(F)c1ccc(C2NCCc3sccc32)cc1 (stereo not given) in the list: 100	-8	96	95
# O=C(NC1CCCC1)c1ccc(CSc2nc3cccnc3n2Cc2cccc(F)c2)cc1 in the list: 102	x	91	88

# Further results follow.
SMILES,GIV Gai3 FP,HCMV NEC inh,Sa growth inh,Sa growth inh second temp
Cn1c(=O)[nH]c2nc(N3CCCC3)sc2c1=O,124,-41,x,x
Cc1cc(C)c(OC(=O)/C=C/c2cccs2)c(C)c1,99,-6,135,90
Cc1nc2c(C(=O)O)cnn2c(C)c1Cc1ccccc1,104,x,121,86
Cc1c2cnn(CC(=O)O)c(=O)c2c(C)n1Cc1ccccc1,104,14,93,96
Cc1ccccc1NC(=O)c1sc2nc3c(cc2c1N)CCCC3,108,-46,95,87
O=P(c1ccccc1)(c1ccccc1)C1CCCO1 (stereo not given),96,-6,106,70
COc1ccc(NC(=O)Cn2nnc(C(=O)Nc3ccc(F)c(Cl)c3)c2N)cc1OC,99,x,86,80
COc1ccc(CCN2CCC(CNS(=O)(=O)c3cnc[nH]3)CC2)cc1,104,-12,x,x
Cc1ccc(C(=O)NC2CCCCC2)cc1-n1nnc2cccnc21,112,-45,x,x
CC/C(C)=N/NC(=O)c1cccc(S(=O)(=O)N(CC)CC)c1,x,-3,104,89
COc1cc(OC)c(NC(=O)Cn2cnc3sc(C)c(S(=O)(=O)N4CCC(C)CC4)c3c2=O)cc1Cl,102,-19,106,80
NCCSCc1ccccc1,x,-28,64,89
COc1ccc(Cl)cc1NC(=O)CCN1C(=O)c2ccccc2Sc2ncccc21,102,x,106,78
CC1CCCCN1C(=O)c1ccc2c(=O)n3c(nc2c1)CCCCC3 (stereo not given),105,5,88,92
COCc1nnc(C(=O)Nc2ccc(C(=O)NCCc3c[nH]c4ccc(OC)cc34)cc2)s1,109,5,x,x
c1ccc(-c2cnc(-c3ccccc3)nc2)cc1,97,-13,99,89
CCS(=O)(=O)Nc1ccc(C2=NN(C(=S)Nc3ccccc3)C(c3ccco3)C2)cc1 (stereo not given),x,-26,88,85
O=S(=O)(Nc1ccncc1)c1ccccc1,104,-8,96,85
O=C(NCCCN1CCCC1)c1ccc(CN2C(=O)CSc3ncccc32)cc1,104,-3,x,x
CCOC(=O)c1c(-c2ccccc2)csc1NC(=O)C1Cc2ccc(C)cc2C(=O)O1 (stereo not given),105,-22,x,x
Cc1oc2cc(OC(C)C)ccc2c(=O)c1-c1ccc2c(c1)OCCO2,111,x,108,82
Nc1cc2c(cc1Cl)OCCCO2,x,19,113,96
CCOc1ccc(N(CC)C(=O)CCc2nc(-c3ccc(OC)cc3)no2)cc1,109,2,108,96
CC(=O)NC(C)c1nc2ccccc2[nH]1 (stereo not given),104,-8&1,x,x
COc1ccc(OCc2ccc(-c3nc(C#N)c(N4CCC(C(N)=O)CC4)o3)o2)cc1,101,-35,102,88
Cc1ccc(C(=O)Sc2nnc3sc4ccccc4n23)cc1,x,-28,99,91
CCc1ccccc1NC(=O)C1=CC(c2ccc(OC)c(OC)c2)=NS(=O)(=O)N1C,99,-20,111,92
COC(=O)c1cc(CSc2nnc(NC3CCCCC3)s2)oc1C,x,-21,104,102
CCc1ccccc1Nc1cc(C(=O)NCC2COc3ccccc3O2)c2ccccc2n1 (stereo not given),101,x,115,89

# Screens: PubChem BioAssay, ICCB-Longwood Screening Facility, Harvard Medical School

# Compounds as they come. About 0.85% of those tested had a hit in this group.
